Screening results: PubChem, several laboratories
Vif TR-FRET: inhibitors of Vif binding to APOBEC3G peptide, primary screen, biochemical, TR-FRET, GST-Vif 1-94, biotin-A3G peptide, dose response retest (AID 1117319) | actives 0.57% (n = 260,000) | TR-FRET GST-Vif / biotin-A3G peptide binding; higher % means a stronger effect; test concentration not given here; strong numbers were not always called active | one-dose inhibition, %; IC50 in µM for titrated hits | Virion infectivity factor (Human immunodeficiency virus type 1 group M subtype B (isolate …;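 active means above the screen mean plus three standard deviations and confirmed in dose response; inconclusive means results disagree or hit not tested in dose response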;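 further: Vif residues 1-94 fused to GST binding biotinylated APOBEC3G peptide 110-148; 0% = full assay without inhibitor and 100% = GST in place of GST-Vif; retest series ran down from 100 µM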
A1 inh: caspase 3/7 activation in MEF A1-2A-BIM cells, primary screen, A1 inhibitor project, cell-based, luminescence, HTS; Caspase-Glo 3/7 luminescence, 3 h; percent of clofoctol response, vehicle zero; caspase activation, % (no concentration beside the values); actives 0.066% (n = 330,000); AID 2462, 2010;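 active means over half of replicate activation scores above 10%, or exactly half above 10 with the replicate mean above 10; inconclusive means replicate mean below 10 yet half the replicates above 10; inactive means over half of replicates below 10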;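 further: wells of about 30 µL received 50 nL stock; many hits fall short of the cut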
Beta apoptosis: inhibitors of cytokine-induced beta cell apoptosis, primary screen, luminescence; INS-1E cytokine-induced death, ATP luminescence, 48 h; percent of positive-control rescue, neutral wells zero; protection from apoptosis, % (no concentration beside the values); actives 0.8% (n = 300,000); AID 435005, 2010;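 active means all replicates at 75% or more, or half of them and the mean; inconclusive means half reach 75% but not the mean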;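 further: 0% = cytokine-treated negative control wells and 100% = positive control rescue; higher means more ATP so stronger rescue from cytokine killing; wells of about 40 µL received 100 nL stock; the first replicate is given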
T cruzi inh: inhibitors of intracellular T. cruzi growth, primary screen, luminescence, NIH3T3 host cells | T. cruzi beta-gal in NIH3T3, 90 h | inhibition, % (no concentration beside the values) | actives 1.4% (n = 300,000) | AID 1885, 2009;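 active means mean inhibition across valid replicates above about 55%, limit read from the data; inconclusive means mean below that limit but half or more replicates reach it; inactive means mean below it, under half of replicates reach it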;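 further: signal also drops with host cell toxicity which is not excluded here; 0% = plate median of DMSO wells and 100% = zero luminescence signal; higher percent means less beta-gal luminescence so fewer parasites; stock transfer was 50 nL into about 50 µL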
LANA-H2A inh: blockers of LANA interaction with H2A/H2B – biochemical, FP readout, HTS, primary screen; Protein LANA1 (Human herpesvirus 8 type P (isolate GK18)), Q9QR71; cell-free LANA-H2A/H2B peptide, fluorescence polarization; inhibition, % (concentration not given with the values); actives 0.6% (n = 320,000); AID 2629, 2010; in the data active means inhibition mostly above about 10%, no sharp cut-off; inactive means mostly below about 6.7%;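 further: stock transfer was 7.5 nL into about 10 µL; 0% = median of vehicle wells and 100% = median of positive control wells; one replicate is shown; the record names a cut of 25% in any replicate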
Target sequence (Q9QR71 whole entry, looked up): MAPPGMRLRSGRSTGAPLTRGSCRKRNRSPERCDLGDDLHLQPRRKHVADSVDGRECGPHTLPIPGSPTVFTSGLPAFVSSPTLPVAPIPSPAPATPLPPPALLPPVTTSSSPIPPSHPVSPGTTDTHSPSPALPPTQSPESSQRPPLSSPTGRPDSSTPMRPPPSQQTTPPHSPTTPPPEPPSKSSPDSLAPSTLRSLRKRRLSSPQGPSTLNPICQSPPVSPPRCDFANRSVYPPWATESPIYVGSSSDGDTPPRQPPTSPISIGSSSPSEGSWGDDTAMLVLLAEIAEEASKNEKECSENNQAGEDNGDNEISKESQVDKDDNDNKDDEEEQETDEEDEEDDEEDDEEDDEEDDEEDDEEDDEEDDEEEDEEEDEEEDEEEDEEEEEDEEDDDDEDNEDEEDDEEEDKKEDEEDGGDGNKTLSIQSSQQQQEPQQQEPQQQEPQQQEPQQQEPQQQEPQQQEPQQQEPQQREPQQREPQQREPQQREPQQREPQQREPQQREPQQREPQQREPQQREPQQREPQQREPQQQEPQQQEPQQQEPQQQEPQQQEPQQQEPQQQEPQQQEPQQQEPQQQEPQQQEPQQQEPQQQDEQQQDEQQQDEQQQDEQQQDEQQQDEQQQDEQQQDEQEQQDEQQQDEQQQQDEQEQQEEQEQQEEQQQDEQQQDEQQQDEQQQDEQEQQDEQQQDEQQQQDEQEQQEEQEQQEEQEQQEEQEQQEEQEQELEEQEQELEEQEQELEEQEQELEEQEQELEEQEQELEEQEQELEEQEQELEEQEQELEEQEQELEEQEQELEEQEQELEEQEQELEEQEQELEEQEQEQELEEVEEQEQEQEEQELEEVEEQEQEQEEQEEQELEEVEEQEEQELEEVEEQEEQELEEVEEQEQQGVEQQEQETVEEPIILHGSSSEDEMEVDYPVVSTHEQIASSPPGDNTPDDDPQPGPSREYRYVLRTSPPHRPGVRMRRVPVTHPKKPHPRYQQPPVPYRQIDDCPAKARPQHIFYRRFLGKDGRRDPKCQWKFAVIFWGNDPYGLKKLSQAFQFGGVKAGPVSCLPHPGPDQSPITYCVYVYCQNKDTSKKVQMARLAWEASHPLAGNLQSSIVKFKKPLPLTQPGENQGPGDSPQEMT
RanGTP-Impb inh: inhibitors of RanGTP-importin-beta interaction, primary screen, biochemical, FRET, CFP-Ran, YFP-importin-beta, homogeneous. cell-free CFP-Ran/YFP-importin-beta FRET ratio. inhibition, % (concentration not given with the values). actives 1.1% (n = 300,000). AID 2216, 2009;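 active means most replicates above 15%; inconclusive means exactly half above 15%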;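 further: 0% = DMSO wells and 100% = Ran loaded with GDP instead of GTP; wells of about 40 µL received 100 nL stock; the first replicate is given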
MLL AF4-AF9 inh: inhibitors of AF4 peptide binding to AF9, primary screen, biochemical, AlphaScreen, biotin-AF4 peptide, FLAG-AF9, single point. Protein AF-9 (Homo sapiens), P42568. inhibition, % at 10 µM. actives 0.47% (n = 350,000). AID 651704, 2012;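 active means every replicate reaching a set inhibition limit, whatever the replicate mean, cut at about 25% in these data; inconclusive means mean inhibition reaches that limit but some replicates miss it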;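 further: 0% = plate neutral control median and 100% = total signal loss; the record names both 10 and 1 µM as test concentration; the first replicate is given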
Calb FLC: C. albicans growth inhibition with fluconazole, primary screen, CaCi-2 strain, Alamar Blue fluorescence | C. albicans CaCi-2 (fluconazole-resistant clinical isolate) + fluconazole, 48 h | growth inhibition, % (no concentration beside the values) | actives 0.57% (n = 300,000) | AID 1979, 2009;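 active means most replicates above 75%; inconclusive means exactly half above 75%; inactive means most below 75%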;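 further: all wells also contain fluconazole at 8 µg/ml as a sub-toxic cotreatment; 0% = median of DMSO wells and 100% = median of geldanamycin control wells; wells of about 8 µL received 7.5 nL stock; the first replicate is given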
Starred values were filed as active, the others as inactive; u = inconclusive; x = no result given.

Start of the data: the first 5 entries, to show the layout:
SMILES	Vif TR-FRET	A1 inh	Beta apoptosis	T cruzi inh	LANA-H2A inh	RanGTP-Impb inh	MLL AF4-AF9 inh	Calb FLC
CNc1nc(-c2ccc3c(c2)CCN3S(=O)(=O)c2ccccc2)c(C)s1	-40%	-0.3	0	9	2.6	-1.3	5.2	-6
COc1cc2nc(Nc3cccc(F)c3)nc(N)c2cc1OC	4%	-2.7	0	25	-4.3	0.2	17	0
O=C(Nc1nncs1)c1cccnc1Cl	4%	0.5	-14	-26	-0.7	3.6	x	-11
O=C(c1cc(Cl)cc(Cl)c1)N1CCC(=O)N(C(COCc2ccccc2)Cc2ccccc2)CC1 (stereo not drawn)	x	0.9	-9	44	-1.2	4.7	-2.0	-4
Cc1ccc(C(=O)CSc2nnc(COc3cccc(C)c3)o2)cc1	u	-0.6	0	-2	-6.7	-0.3	x	13

Results, from the start:
SMILES	Vif TR-FRET	A1 inh	Beta apoptosis	T cruzi inh	LANA-H2A inh	RanGTP-Impb inh	MLL AF4-AF9 inh	Calb FLC
CNc1nc(-c2ccc3c(c2)CCN3S(=O)(=O)c2ccccc2)c(C)s1	-40%	-0.3	0	9	2.6	-1.3	5.2	-6
COc1cc2nc(Nc3cccc(F)c3)nc(N)c2cc1OC	4%	-2.7	0	25	-4.3	0.2	17	0
O=C(Nc1nncs1)c1cccnc1Cl	4%	0.5	-14	-26	-0.7	3.6	x	-11
O=C(c1cc(Cl)cc(Cl)c1)N1CCC(=O)N(C(COCc2ccccc2)Cc2ccccc2)CC1 (stereo not drawn)	x	0.9	-9	44	-1.2	4.7	-2.0	-4
Cc1ccc(C(=O)CSc2nnc(COc3cccc(C)c3)o2)cc1	u	-0.6	0	-2	-6.7	-0.3	x	13
Cc1cc(C(=O)OCC(=O)NC2CCC(C)CC2)c(C)o1 (stereo not drawn)	-5%	2.8	10	x	2.6	x	1.3	x
CC1=CS(=O)(=O)CC1SC(=S)N(C)C1CCS(=O)(=O)C1 (stereo not drawn)	-11%	0.0	-8	-8	-3.0	7.9	-3.5	-14
Cc1cc(NC(=O)/C=C/c2ccccc2Cl)n(-c2nc3ccccc3[nH]2)n1	x	-2.3	38	47	2.3	-1.3	-3.0	-3
CC1CCCC(NC(=O)CCNC(=O)c2ccccc2Cl)C1C (stereo not drawn)	7%	1.1	5	-5	-2.9	0.6	-3.5	2
COc1ccc2[nH]c(=O)c(-c3noc(-c4ccccc4)n3)cc2c1	-14%	0.9	-1	23	3.9	-8.1	x	3
CSC1=NSC2=NC(=O)/C(=C\c3coc4ccccc4c3=O)C(=N)N12	5%	-2.6	1	x	9.3	x	-7.1	x
Nc1nc(COc2ccc(F)cc2Cl)nc(N2CCCCC2)n1	3%	1.9	-8	14	11	-1.2	-1.6	-1
CCOC(=O)c1cc(-c2cccc(C(F)(F)F)c2)nc2nc(SC)[nH]c(=O)c12	-8%	-0.1	12	0	-4.3	-2.7	x	-3
CCO[C@@H]1OC(C(=O)N2CCCCCCC2)=C[C@H](c2ccc3c(c2)OCO3)[C@H]1CCCO	-11%	0.5	-5	9	-3.6	3.5	-0.1	4
CC(C)N(CCCNC(=O)C1CCN(S(=O)(=O)N2CCOCC2)CC1)Cc1ccccc1	32%	0.3	-3	-10	-1.0	0.4	x	-6
Cc1cc(-c2ccccc2)n(-c2cc(N/N=C/c3ccccc3O)ncn2)n1	x	2.2	77*	x	2.8	x	0.9	x
CCOC(=O)N1C2=NC(C(=O)OC)=C(C(=O)OC)[C@@H]3N(C)c4ccccc4[C@]23C[C@H]1C(=O)OC	-2%	-0.8	1	-9	8.4	-2.2	2.8	-9
COC(C[C@@H]1O[C@H]1[C@@H](O)[C@@H](C)OCc1ccccc1)OC	4%	x	x	-5	x	-4.3	x	-10
CC(=O)C1=NN(c2ccccc2)C(c2cccs2)N1c1ccccc1 (stereo not drawn)	30%	-0.5	-8	x	5.0	x	x	1
CCOc1ccccc1NC(=O)Cn1cnc2c(nnn2-c2cccc(OC)c2)c1=O	1%	0.0	-8	1	6.0	-4.1	-8.8	-8
O=C(CSc1nnc(-c2ccccn2)o1)Nc1ccccc1	5%	0.0	-8	-25	3.8	1.3	-1.8	-4
Cc1cc(C)n2c(SCC(=O)Nc3cc(S(=O)(=O)N(C)C)ccc3C)nnc2n1	-6%	0.6	2	x	4.3	x	-3.4	x
CN(CC(=O)Nc1c(Cl)cccc1Cl)C(=O)c1cccc(S(=O)(=O)NCc2ccccc2)c1	-3%	-0.2	-17	-8	-1.8	-3.4	3.4	5
COC(=O)c1nc2cc(C)ccn2c1F	3%	0.9	-3	-16	-4.5	6.7	-4.3	1
COc1ccccc1NC(=O)CN(Cc1ccccc1)S(C)(=O)=O	u	0.6	-12	-1	1.6	-0.3	x	5
CC(=O)N1CCc2cc(S(=O)(=O)NCCC(=O)Nc3cccc(C)c3)ccc21	24%	-0.1	-4	-8	1.5	2.4	x	0
Cc1cccn2c(=O)c3cc(C(=O)NCCN4CCOCC4)c(=N)n(CCc4ccccc4)c3nc12	1%	0.7	20	36	-0.3	185*	x	-5
Cn1nccc1C(=O)NC1CCN(Cc2ccccc2)CC1	x	0.2	-5	18	0.1	-1.6	-2.0	0
CN1CCC(NC(=O)c2cc(-c3cccc(Br)c3)nc3ccccc23)CC1	-14%	-0.4	18	44	3.5	1.2	1.2	17
Cc1ccc(N2C(=O)[C@@H]3C(c4cccnc4)=NO[C@@H]3C2=O)c(C)c1	9%	-0.3	-1	-4	5.3	-1.5	0.3	13
CCOC(=O)N1CCN(c2c(NCCc3ccccc3)c(=O)c2=O)CC1	11%	0.6	-4	0	-1.6	u	-0.4	4
CCOc1cccc(C2C(C(=O)c3cccs3)=C(O)C(=O)N2Cc2cccnc2)c1 (stereo not drawn)	-9%	0.1	-1	-28	-2.9	-5.5	-6.4	8
Cn1cccc1C(=O)OCC(=O)NCc1cccs1	5%	1.0	-2	x	6.8	x	2.5	x
CCCCNC(=O)c1onc(CSc2cccc(F)c2)c1C(=O)O	0%	-2.3	-3	-14	0.5	-6.9	-0.9	-9
O=c1c2ccccc2cnn1-c1ccc(Br)cc1	2%	-5.6	0	-4	-8.4	2.6	x	-2
CCN(CC)c1ncnc2sc(C(=O)N3CCN(c4ccc(OC)cc4)CC3)c(C)c12	6%	-0.1	-3	17	2.9	5.8	x	3
Cn1nnnc1SCC(=O)NC(C)(C)C	u	0.5	2	x	1.7	x	x	-1
COC(=O)c1ccc(COC(=O)CNC(=O)C2CCCCC2)cc1	7%	-0.8	-6	x	-1.8	x	-1.4	x
CC(Sc1nnc(-c2ccccc2F)n1C1CC1)C(N)=O (stereo not drawn)	x	0.4	-7	-11	-4.1	1.1	-0.6	4
C/C(=N\NC(N)=S)c1ccc(Cl)s1	x	-0.2	x	36	0.5	u	7.1	-20
O=C(COc1ccc2ccccc2c1)Nc1cccc2cccnc12	-8%	-0.1	-3	-1	-0.4	1.4	x	1
COCCN1CCN(Cc2nc(Cc3ccc(OC)c(OC)c3)no2)CC1	x	1.0	-1	-4	-2.1	-3.7	0.2	-6
c1ccc2[nH]c(CSc3ncnc4c3oc3ccccc34)nc2c1	4%	-0.4	5	-11	1.8	u	x	39
S=c1[nH]nc(CCc2ccc(Cl)cc2)o1	7%	-0.5	-1	-7	-0.5	-3.1	-6.3	6
Cn1nc(C(F)(F)F)c2cc(NC(=O)OCC(C)(C)C)sc21	-5%	0.7	-1	-8	0.7	1.8	x	5
OCCC1CN(Cc2ccsc2)CCN1C1CCCC1 (stereo not drawn)	19%	-0.7	-4	-8	-1.4	5.0	-2.0	-2
O=C(NCC(F)(F)F)Nc1ncccn1	-2%	-0.5	x	-12	3.5	-1.2	x	0
CC(=O)Nc1nnc(CCN2CCCCC2)s1	14%	-0.1	-10	-2	1.4	4.0	x	5
COc1ccc(Nc2nc(NCCO)nc(OC)n2)cc1	-2%	0.6	-3	-19	3.6	-2.8	x	-2
Cc1csc(N/N=C/c2ccc([N+](=O)[O-])cc2)n1	x	-1.5	7	-10	11	0.1	2.0	47
CS(=O)(=O)N(CC(N)=O)Cc1ccc(Cl)cc1	0%	0.1	2	-11	4.5	-1.8	1.3	9
CCOC(=O)c1c(C)nc(SC)c(C#N)c1-c1ccccc1	20%	-0.8	-5	-4	-1.8	-3.5	x	-3
CCOC(=O)c1oc2ccccc2c1CN1CCCCC1	-4%	-0.3	-1	9	-0.2	1.2	-3.4	u
COc1ccc(/C=N/NC(=O)Nc2cccc3nsnc23)c(OC)c1	19%	0.2	-7	x	-3.9	0.7	x	-1
COC(=O)c1c(C)[nH]c(C(=O)CN2CCOCC2)c1C	12%	-0.5	-3	-9	0.5	6.4	x	4
CCCCCN1C/C=C\C(c2ccc(OC)cc2)N(Cc2ccc(F)cc2)C(=O)C1 (stereo not drawn)	x	0.0	-1	14	-3.1	-1.4	-0.5	-3
CCOCC(=O)Nc1ccc([N+](=O)[O-])cc1C	-7%	0.4	-4	-10	0.2	-0.4	-0.2	9
COc1cc2c(cc1OC)C(c1cc(C)ccc1C)CC(=O)N2 (stereo not drawn)	x	0.9	4	12	1.1	-0.7	6.8	3
O=C(CSc1nc(-c2ccc(F)cc2)cs1)NCCN1C(=O)CSC1=O	x	-0.9	-3	-2	-3.8	9.7	-0.7	6
CCC(=O)NC1=C(Nc2ccc(N)cc2)C(=O)c2ccccc2C1=O	7%	-0.4	12	-15	0.8	1.6	12	-5

(next part)
SMILES	Vif TR-FRET	A1 inh	Beta apoptosis	T cruzi inh	LANA-H2A inh	RanGTP-Impb inh	MLL AF4-AF9 inh	Calb FLC
O=C(COc1cccc2cccnc12)N1CCc2ccccc21	x	-1.1	6	-4	4.4	4.7	-0.2	40
CCC(C)N(C(=O)COC(=O)CSc1ccc(C)c(C)c1)C1CCS(=O)(=O)C1 (stereo not drawn)	16%	-0.2	-1	x	-5.9	x	4.1	x
Nc1ccc(NC(=O)c2ccco2)c(Cl)c1	-5%	0.1	-6	-4	-4.6	7.8	-1.8	0
Cc1ccc(CSCC(=O)N(C)CC(=O)Nc2ccccc2Cl)cc1	-2%	0.4	-1	-6	-4.2	0.2	-0.7	27
O=C(c1nn(-c2ccccc2)c(=O)c2ccccc12)N1CCN(c2ncccn2)CC1	11%	-0.2	1	-2	8.7	0.5	1.3	-3
Cc1ccccc1Nc1c(F)c(F)c(F)c(F)c1C(=O)O	1%	-0.5	-1	-10	3.1	0.1	-1.2	1
